Bst PK mod = modulators of Bacillus stearothermophilus pyruvate kinase; partly purified Bacillus stearothermophilus pyruvate kinase, luminescence ATP production; ribose 5-phosphate activator present at AC10; Potency, µM; 51,000 tested, 1.2% active; AID 361; in the data active means potency below about 11 µM; inconclusive means mostly about 12 µM to 25 µM; inactive means weaker than that;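 the screen sought inhibitors and activators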;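 further: potency means the concentration at half of the fitted maximal effect; scaled between full activation by ribose 5 phosphate and full inhibition by luteolin; about four in five hits inhibit and the cells do not say which; series up to 57 µM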
TsaE inh = displaces an ADP probe from E. coli YjeE (TsaE); 71,000 tested, 0.05% active; purified YjeE, fluorescence polarisation of a bound ADP probe; P0AF67; Potency, µM; active = well fitted falling curve; inconclusive = weaker or top-dose-only fall, or a rising curve; inactive = flat or poorly fitted curve;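 further: top concentration of the series not given in the record; excess ADP was the control for the full effect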
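Fluorescence polarization of a BODIPY Texas Red–ADP probe (2 uM) bound to purified YjeE (10 uM) was read after 15 min room-temperature incubation with compounds. Loss of polarization marks inhibitors; ADP serves as titrated control.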
Starred values were filed as active, the others as inactive; i = inactive; ? = inconclusive; . = not tested or not shown. This is a subset (hit frequency here may not be typical).

Under each structure: Bst PK mod, TsaE inh
Cn1nccc1C(=O)NCCN1C(=O)OC(C)(C)C1(C)O (stereo not drawn)
 : >57, i
N#C/C(=C(/O)CSc1nnc(Cc2cccs2)n1C1CCCCC1)c1nc2ccccc2[nH]1
 : ., i
COC(=O)N1CCC2(CCN(C(=O)NC(C)C)CC2)CC1
 : ., i
Cc1ccc(N2C(=O)c3ccc(C(=O)NCCN4CCOCC4)cc3C2=O)cc1
 : >57, i
C=C(C)Cn1c(CCCNC(=O)CC)nc2ccccc21
 : >57, i
COc1ccc(OC)c(NC(=O)c2c(NC(=O)c3ccco3)sc3c2CCC3)c1
 : >57, i
COc1ccc(-n2c(Cc3cccn3C)nnc2SCC(=O)Nc2cccc(OC)c2)cc1
 : ., i
CN(C)c1ccc(C(c2nnnn2CCOC(=O)Nc2ccc(Cl)cc2)N2CCOCC2)cc1 (stereo not drawn)
 : >57, i
O=C(NCC1CCCO1)c1c(O)c2ccccc2[nH]c1=O (stereo not drawn)
 : >57, i
COC(=O)c1cc(Br)c(=O)n(CCc2ccc(F)cc2)c1
 : >26, .
O=C(c1ccc(N2CCCC2=O)cc1)N1CCCCCC1
 : >57, i
COc1ccc(NC(=O)C2Cc3ccccc3CN2C(=O)c2ccccc2)cn1 (stereo not drawn)
 : >57, i
COc1ccc(CCNc2nc(-c3ccco3)cc(C(F)(F)F)n2)cc1OC
 : >57, i
OCC(CO)(CO)N=Cc1c(O)ccc2ccccc12
 : ., i
CN1CCN(c2ncc3nc(-c4ccccc4)c(=O)n(C)c3n2)CC1
 : ., i
O=C(CN1C(=O)CCC1=O)Nc1nc(-c2cccs2)cs1
 : >57, i
CCS(=O)(=O)N1CCN(C2CCC(C)CC2)CC1 (stereo not drawn)
 : >57, i
Cc1nn(C)c(C)c1NC(=O)CSc1nc(-c2ccccc2F)nc2c1cnn2-c1ccccc1
 : >57, i
O=C(CN1C(=O)c2ccccc2C1=O)Nc1cccc2cccnc12
 : ., i
CS(=O)(=O)N(CC(=O)NC1CCCCC1)c1cccc(Cl)c1
 : >57, i
CC(NCCC(c1ccccc1)c1ccccc1)c1ccccc1 (stereo not drawn)
 : >11, .
O=C(O)c1cc(-c2ccco2)nc2ccccc12
 : >57, i
CS(=O)(=O)N1CCC2(CCN(c3ccccc3)CC2)CC1
 : ., i
COc1nc2ccccc2c(=O)n1OCC(C)C
 : >57, i
COc1ccc(-c2coc3cc(O)ccc3c2=O)cc1OC
 : i, i
Cc1oc2cc3c(C(=O)OCCN(C)C)c(C)oc3cc2c1C(=O)OCCN(C)C
 : >57, i
Cc1sc2ncnc(SCC(=O)c3cccs3)c2c1C
 : ., i
Cn1c(-c2ccc3c(c2)OCO3)cnc1NCc1cccc(Cl)c1
 : >57, i
COc1ccc(-c2cc(CCCC(=O)NCCc3cc(OC)ccc3OC)no2)cc1
 : >57, i
CCOC(=O)N1CCN(C(=O)CCc2c(C)nc3nc(C)nn3c2C)CC1
 : >57, i
CCOc1ccccc1N(C)C(=O)C1CCN(S(=O)(=O)c2cccc3nonc23)CC1
 : >57, i
CCOc1ccc(CN2CCN(S(=O)(=O)c3ccc(NC(C)=O)cc3)CC2)cc1OC
 : >57, i
COc1c(Cl)cc(Cl)cc1C(=O)Nc1ccccc1N1CCN(C(C)=O)CC1
 : >57, i
Nc1n[nH]c2ccccc12
 : ., ?
COc1ccc(OCC(=O)Nc2ncc3c(n2)CC(C)(C)CC3=O)cc1
 : >57, i
COc1ccc(Br)cc1S(=O)(=O)N1CCOCC1
 : >57, i
O=C(COC(=O)c1ccc2c(c1)OCO2)NC1CCS(=O)(=O)C1 (stereo not drawn)
 : >57, i
c1cn2c(NC3CCCC3)c(-c3ccc(N4CCOCC4)cc3)nc2cn1
 : ., i
O=C(c1ccco1)N1CCN(C(=O)c2cnn3cccnc23)CC1
 : >57, i
Cc1cc(C)c(N)cc1C
 : ., i
Cc1ccc(NC(=O)CCn2c(=O)oc3ccccc32)cc1
 : >57, i
O=S(=O)(NCc1ccc2c(c1)OCO2)c1cccc2cccnc12
 : ?, i
CCCCCCCCOc1ccc(C(=O)O)cc1
 : ., i
CC1CCc2nn(CC(=O)NCCC3=CCCCC3)cc2C1 (stereo not drawn)
 : ., i
Cc1nc(SCC(=O)NCCc2ccccc2)n[nH]1
 : >57, i
CC(C)=CCC/C(C)=C/CC/C(C)=N/O
 : ., i
Nc1ccc(N(S(=O)(=O)c2ccccc2)S(=O)(=O)c2ccccc2)c(Cl)c1
 : ., i
CCN(CC)c1ccc(-n2cc3c(=O)n(C)c(=O)n(C)c3c2)cc1
 : i, i
Cc1ccccc1NC(=O)C1Cc2ccccc2C(=O)O1 (stereo not drawn)
 : >57, i
CN1C(=O)c2ccc(S(=O)(=O)c3ccc(C(=O)O)cc3)cc2C1=O
 : >57, i

Following part
Under each structure: Bst PK mod, TsaE inh
CC(=O)Nc1ccc(S(=O)(=O)NCCN2CCOCC2)cc1
 : ., i
COc1ccc(-n2c(SCC(N)=O)nc3sc4c(c3c2=O)CCN(C)C4)cc1
 : >26, .
COc1ccc(OC)c(NC(=O)Cn2cc(C#N)c3cc(Br)ccc32)c1
 : >57, i
C=CCOc1nc2c(c(=O)n(C)c(=O)n2C)n1C
 : ., i
C/C(N)=C(/C#N)C(=O)COC(=O)c1cc(S(=O)(=O)N2CCCCC2)ccc1C
 : >57, i
CCOC(=O)CC(=O)Nc1c(C)cc(C)cc1C
 : ., i
Cc1cccc2cc(CN(CC3CCCO3)C(=O)NC3CCCCC3)c(=O)[nH]c12 (stereo not drawn)
 : >57, i
O=C1NCCCC2c3cc(O)c4ccccc4c3OC12N1CCCCC1 (stereo not drawn)
 : >57, i
O=C(Nc1nnc(C2CCCO2)s1)c1cccs1 (stereo not drawn)
 : >57, i
O=C(Cn1nnc(-c2ccccc2NC(=O)c2ccccc2F)n1)NCc1ccco1
 : >57, i
O=C(COc1cccc2cccnc12)NCC(F)(F)F
 : >57, i
O=C(Cn1[nH]c(=O)c2ccccc2c1=O)N1CC=C(c2ccccc2)CC1
 : >57, i
Cc1cccc(N(C(=O)CCC(=O)Nc2ccccn2)C(C(=O)NC(C)C)c2ccc(O)cc2)c1 (stereo not drawn)
 : >57, i
Cc1cc(C(=O)NC(C)C2CCCO2)cs1 (stereo not drawn)
 : >57, i
Cc1ccc(C)c(NS(=O)(=O)c2ccc(OCC(=O)NCc3ccco3)cc2)c1
 : >57, i
O=C(c1oc(=O)c2ccccc2c1-c1ccccc1)N1CCC(O)CC1
 : ., i
COc1ccc(Cl)cc1NC(=O)N(C)Cc1c(C)nn(C)c1C
 : >57, i
COc1ccccc1CN1CC(C(=O)NC2CCCCC2)CC1=O (stereo not drawn)
 : >57, i
N#Cc1nc(COc2ccccc2)oc1N1CCC(Cc2ccccc2)CC1
 : >57, i
Cc1cccc(N2CCN(C(=O)C3CCN(c4nnc(-n5cccc5)s4)CC3)CC2C)c1 (stereo not drawn)
 : ., i
Cc1ccc(S(=O)(=O)N2CCCC(C(=O)NCc3cccnc3)C2)cc1Cl (stereo not drawn)
 : ?, i
Cc1ccc2c(SCC(=O)NCc3ccco3)nc(-c3ccc(F)cc3)nc2c1
 : >57, i
Cc1[nH]c(=O)[nH]c(=O)c1S(=O)(=O)N1c2ccc(F)cc2CCC1C (stereo not drawn)
 : >57, i
O=C(O)c1cccc(S(=O)(=O)Nc2ccc3c(c2)OCO3)c1
 : >57, i
O=c1cc(CO)oc(C(Nc2ccccn2)c2ccsc2)c1O (stereo not drawn)
 : >57, i
COc1ccc2c(c1OC)C(=O)N1C(C(=O)O)Cc3c([nH]c4ccccc34)C21 (stereo not drawn)
 : ., i
CCNc1cc2n(c(=O)n1)CCc1cc(OC)c(OC)cc1-2
 : >57, i
COc1ccc(NC(=O)N2CCCC3(CCN(C(=O)c4ccncc4)CC3)C2)cc1
 : ., i
C[C@@H]1C[C@H]2[C@@H]3CCC4=CC(=O)C=C[C@]4(C)[C@@]3(F)[C@@H](O)C[C@]2(C)[C@H]1C(=O)CO
 : >26, .
CC1=C(C)[N+](=O)C2CCCCC2N1[O-] (stereo not drawn)
 : ., i

Additional entries:
smiles | Bst PK mod | TsaE inh
Cc1cc(C)cc(NC(=O)CCN2CC(C)OC(C)C2)c1 (stereo not drawn) | >57 | i
CN1CCN(c2ncc3ncc(=O)n(Cc4cccs4)c3n2)CC1 | . | i
COc1ccc(N2CCN(C3CC(=O)N(C)C3=O)CC2)cc1 (stereo not drawn) | . | i
CC(=O)C1=C(C)NC(=O)NC1c1cc(Br)ccc1OCC(N)=O (stereo not drawn) | >57 | i
COc1ccc2nc(N3CCCC(O)C3)c(C#N)cc2c1 (stereo not drawn) | i | i
C=CCSc1nnc(NC(=O)CSc2nc(CCC)cc(=O)[nH]2)s1 | >57 | i
COc1cc(Cc2cnc(N)nc2N)cc(OC)c1OC | >57 | i
COC(=O)c1ccc(NC(=O)CCN2CCN(c3ccccc3)CC2)cc1 | >57 | i
COC(=O)c1ccc(CSc2nncn2C)cc1 | >57 | i
CCCCC(CC)COCCCN (stereo not drawn) | . | i
NS(=O)(=O)c1ccc(CNC(=O)C2CCCCC2)cc1 | >57 | i
Nc1c(S(=O)(=O)c2cccs2)c2nc3ccccc3nc2n1Cc1ccc2c(c1)OCO2 | >57 | i
Nc1ccc(N)c([N+](=O)[O-])c1 | . | i
COC(=O)c1ccccc1N(Cc1ccccc1)S(C)(=O)=O | . | i
COCCCNC(=O)c1ccc(CNS(=O)(=O)c2ccc(NC(C)=O)cc2)cc1 | >57 | i
c1ccc(-c2onc3cc4c(cc23)OCCO4)cc1 | . | i
O=C(NCc1ccccc1)NC1(C(=O)N2CCN(c3ncccn3)CC2)CCCCC1 | >57 | i
Cc1ccc(S(=O)(=O)NC(CC(=O)NCc2ccco2)c2ccco2)cc1 (stereo not drawn) | i | i
Cc1cccnc1 | . | i
CCCCOC(=O)Nc1nc(CC(=O)OCC)cs1 | . | i
Cc1ccc(C(=O)NCc2ccc(Cl)c(Cl)c2)o1 | . | i
CCN(CC)c1ccc2cc(C(=O)Nc3cccnc3N3CCOCC3)c(=O)oc2c1 | >57 | i
O=C(NCc1ccccn1)c1ccc(N2CCCC2=O)cc1 | >57 | i
CC1CCN(C(=O)CN(C2CCCCC2)S(C)(=O)=O)CC1 | >57 | i
CSc1nc2c(c(=O)[nH]1)C(c1cccs1)C1=C(CCCC1=O)N2 (stereo not drawn) | >57 | i
CCCNc1ncnc2nc[nH]c12 | . | i
Cc1ccc2c(C(=O)CN3CCCCC3CCO)c(C)[nH]c2c1 (stereo not drawn) | . | i
CN1Cc2c(N3CCOCC3)nc(SCc3ccccc3)c(C#N)c2CC1(C)C | >26 | .
COc1ccc2cc(CCNC(=O)c3c(-c4ccccc4Cl)noc3C)c(=O)[nH]c2c1 | . | i
CCOC(=O)CN1CC23C=CC(O2)C(C(=O)Nc2ccc(OC)cc2OC)C3C1=O (stereo not drawn) | . | i
CCOc1cccc(OCCOCCN(C)Cc2ccccc2)c1 | . | i
N#Cc1ccc(C(c2nnnn2CCc2ccccc2)N2CCCCCC2)cc1 (stereo not drawn) | >57 | i
O=C1CC(N2CCN(C(c3ccccc3)c3ccccc3)CC2)C(=O)N1 (stereo not drawn) | . | i
Cn1ccnc1SCC(=O)Nc1ccc2c(c1)COC2=O | >57 | i
O=C(Nc1nc2c(s1)CCCC2)C1CCCN1C(=O)c1cccs1 (stereo not drawn) | >57 | i
Cc1ccc(N(CC(=O)NC2CCCCCC2)S(=O)(=O)c2c(C)nn(C)c2C)cc1 | >57 | i
CCc1ccc2[nH]c(=O)c(CN(CCCN3CCOCC3)C(=O)Nc3ccc(F)cc3)cc2c1 | ? | i
C/C(NC1CCCCC1)=C(/C#N)C(=O)NCCN1CCOCC1 | >57 | i
CC(NC(=O)c1cccc(F)c1)C(c1cccs1)N1CCN(C)CC1 (stereo not drawn) | >57 | i
COc1ccccc1CN1CC[C@@]2(CCCN(C(=O)c3cccc(F)c3)C2)C1 | . | i
COc1ccc(-c2nc(C(=O)N3CCN(C)CC3)sc2-c2ccc(OC)cc2)cc1 | . | i
COc1ccc(OC)c2[nH]c(=O)c(CCNS(=O)(=O)c3ccc(Cl)cc3)cc12 | 4.3* | i
COC(=O)c1cnn2c3c(c(C)nc12)CCCC3 | . | i
O=C(CSc1nnc(Cc2ccccc2)o1)NC1CCCCC1 | >57 | i
O=C1c2cccc(O)c2C(=O)c2c(O)cccc21 | . | i
COCC(=O)N(Cc1cc2ccc(C)cc2[nH]c1=O)c1ccc(OC)cc1 | >57 | i
CCCc1cc(=O)[nH]c(SCC(=O)N(C)C2CCS(=O)(=O)C2)n1 (stereo not drawn) | >57 | i

Complete entries as entered above. Values in the order: Bst PK mod	TsaE inh
Cc1ccc(N(CC(=O)NC2CCCCCC2)S(=O)(=O)c2c(C)nn(C)c2C)cc1 reads >57	i
O=C1c2cccc(O)c2C(=O)c2c(O)cccc21 reads .	i
O=C1CC(N2CCN(C(c3ccccc3)c3ccccc3)CC2)C(=O)N1 (stereo not drawn) reads .	i
COc1ccc(-c2nc(C(=O)N3CCN(C)CC3)sc2-c2ccc(OC)cc2)cc1 reads .	i
Cn1ccnc1SCC(=O)Nc1ccc2c(c1)COC2=O reads >57	i

Screens from PubChem.
